# CBX7 AlphaScr – inhibitors of human CBX7 binding to H3K27me3 peptide. AlphaScreen His6-CBX7 / biotin-H3K27me3 peptide binding; stronger effect = lower value. normalised signal (fraction of DMSO) (concentration not given with the values). O95931. 66,000 tested, 1.1% active; in the data active means normalised signal below about 0.5;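 further: 100 nL library stock added to about 20 µL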
# Target sequence (O95931 whole entry, looked up): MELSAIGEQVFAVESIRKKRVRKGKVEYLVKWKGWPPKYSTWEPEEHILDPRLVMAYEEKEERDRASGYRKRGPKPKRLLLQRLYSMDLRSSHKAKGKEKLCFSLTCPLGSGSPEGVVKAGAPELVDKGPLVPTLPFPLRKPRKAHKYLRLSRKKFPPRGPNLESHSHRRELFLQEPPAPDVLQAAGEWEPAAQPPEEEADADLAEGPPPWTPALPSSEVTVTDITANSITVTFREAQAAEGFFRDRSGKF
# CBX7 AlphaScr z-score – further read-out of CBX7 AlphaScr, marked with its call; z-score; measured here: z-score of CBX7 signal; some inactives read as strong as hits; reference of the scale not given here;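 same signal on another scale; lower means less binding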
# Active calls of the source: *; & = joins results of further samples. An excerpt, so the mix of outcomes need not match the whole.
SMILES,CBX7 AlphaScr,CBX7 AlphaScr z-score
O=C1CN=C(c2ccccc2F)c2cc(Cl)ccc2N1,1.1,2
FC(F)(F)c1cccc(C2NCc3ccccc3-n3cccc32)c1 (stereo not drawn),1,0.0242
CCn1cc(C(=O)N2CCC3(CC2)OCCO3)c2cc(OC)c(OC)cc2c1=O,1.11,1.61
CCNCC1(c2ccc(OC)c(OC)c2)CCCC1,0.994,-0.167
CCC1=Nc2cc(C(=O)N3CCC4(CC3)OCCO4)ccc2Sc2ccc(Br)cc21,0.902,-5.06
CN1CCC(O)(c2ccccc2)C2CCCC21 (stereo not drawn),0.934,-1.06
C=CCOc1ccc(C2SCC(=O)Nc3c2c(=O)[nH]n3C(C)C)cc1 (stereo not drawn),0.981,-0.449
O=C(N1CCN(c2ccc(F)cc2)CC1)C(O)(c1ccccc1)c1ccccc1,0.663,-4.64
COc1ccc(Cl)cc1-n1c(/C=C\c2ccc(F)cc2)nc2ccccc2c1=O,1,0.0689
Cc1nc2cc(-c3ccc(Cl)cc3)nn2c(C)c1CCC(=O)N1CCC2(CC1)OCCO2,1.14,3.38
COc1cccc(/C=C/c2nc3ccccc3c(=O)n2-c2ccccc2F)c1OC,0.998,-0.09
COc1ccc2[nH]c(C)c(CCNCc3ncc[nH]3)c2c1,0.176*,-0.82*
Cc1ccc2c(c1)C1CN(C)CCC1N2C(N)=O (stereo not drawn),0.96,-0.771
CC1N=C(c2ccccc2F)c2cc(Cl)ccc2N(CC(=O)Nc2ccc(N(C)C)cc2)C1=O (stereo not drawn),0.271*,-13.2*
CN(C)C1(c2nnnn2-c2ccc(Cl)cc2)CCCCC1,1.05,1.95
O=c1c2ccccc2nc(/C=C/c2ccccc2)n1-c1cccc(F)c1,1.02,0.83
CC1(C)NCC(c2ccccc2)CC1O (stereo not drawn),0.834,-2.14
Cc1ccc(-n2c(/C=C\c3ccc(F)cc3)nc3ccccc3c2=O)c(C)c1,0.954,-1.26
Clc1cccc(-n2nnnc2C2(N3CCCCC3)CCCCC2)c1,1.11,1.16
O=c1c2ccccc2nc(-c2ccccn2)n1-c1ccccc1,1.09,2.17

# Two entries drawn at random from the list so far:
SMILES,CBX7 AlphaScr,CBX7 AlphaScr z-score
CC1(C)NCC(c2ccccc2)CC1O (stereo not drawn),0.834,-2.14
Cc1ccc(-n2c(/C=C\c3ccc(F)cc3)nc3ccccc3c2=O)c(C)c1,0.954,-1.26

# The results go on.
SMILES,CBX7 AlphaScr,CBX7 AlphaScr z-score
CC1N=C(c2ccccc2)c2cc(Cl)ccc2N(CC(=O)Nc2ccccc2Cl)C1=O (stereo not drawn),0.978,-0.61
C(#CCN1CCCCC1)COCC#Cc1ccccc1,0.937,-1.25
Cc1ccc(S(=O)(=O)C2(C(=O)N3CC4CC(C3)c3cccc(=O)n3C4)CC2)cc1 (stereo not drawn),1.03,1.52
CCCC1=Nc2cc(C(=O)NCCCN(CC)CC)ccc2Sc2ccccc21,1.37,4.38
CC1CCCCN1C(=O)Cn1cc(C(=O)c2ccccc2)c2ccccc21 (stereo not drawn),0.842,-1.71
CC1N=C(c2ccccc2)c2ccccc2N(CC(=O)NCc2ccccc2)C1=O (stereo not drawn),1.01,0.341
O=C(c1ccc2c(c1)ncn2-c1ccc(OCc2ccccc2)cc1)N1CCC2(CC1)OCCO2,0.794,-2.59
O=C(c1ccc2c(c1)ncn2C1CCCCC1)N1CCC2(CC1)OCCO2,1.09,2.37
CCc1nc2ccccc2c(=O)n1-c1cccc(O)c1,0.715,-1.12
COc1cc2c(cc1OC)C(C(=O)Nc1ccc3c(c1)OCCO3)C1CCCCN1C2=O (stereo not drawn),1,0.136
COc1ccc(-n2cnc3cc(C(=O)N4CCC5(CC4)OCCO5)ccc32)cc1,1.11,1.09
COc1ccc(/C=C/c2nc3ccccc3c(=O)n2-c2ccccc2Cl)cc1,1.2,0.198
COc1ccc(C2SCC(=O)Nc3c2c(-c2ccccc2)nn3-c2ccccc2)cc1OC (stereo not drawn),0.791,-2.39
CCCc1ccc(OCC(=O)Nc2ccc(Cl)cc2C(=O)c2ccccc2)cc1,0.86,-0.615
CCOC(=O)C1(c2ccccc2)CCN(CC(=O)Nc2cc(Cl)ccc2OC)CC1,0.996&1.21,-0.0396&2
Cc1cccc(C)c1-n1nnnc1C1(NCCc2c(C)[nH]c3ccccc23)CCCCC1,0.514,-8.83
CC(=O)Oc1cccc(/C=C/c2nc3ccccc3c(=O)n2-c2ccc(F)cc2)c1,0.919,-0.0804
O=C(c1ccccc1)c1cc(Br)ccc1NC(=O)c1nc[nH]c1C(=O)N1CCCCC1,0.799,-3.11
CCCCn1c(=O)c(C(=O)NC(C)c2ccccc2)c(O)c2ccccc21 (stereo not drawn),1.27,1.71
CC(C(=O)Nc1ccc(Cl)cc1C(=O)c1ccccc1)N1CCCCC1 (stereo not drawn),0.907,-1.44

# A stretch of the results above, for reference:
SMILES,CBX7 AlphaScr,CBX7 AlphaScr z-score
CCCc1ccc(OCC(=O)Nc2ccc(Cl)cc2C(=O)c2ccccc2)cc1,0.86,-0.615
CCOC(=O)C1(c2ccccc2)CCN(CC(=O)Nc2cc(Cl)ccc2OC)CC1,0.996&1.21,-0.0396&2
Cc1cccc(C)c1-n1nnnc1C1(NCCc2c(C)[nH]c3ccccc23)CCCCC1,0.514,-8.83
CC(=O)Oc1cccc(/C=C/c2nc3ccccc3c(=O)n2-c2ccc(F)cc2)c1,0.919,-0.0804
O=C(c1ccccc1)c1cc(Br)ccc1NC(=O)c1nc[nH]c1C(=O)N1CCCCC1,0.799,-3.11
CCCCn1c(=O)c(C(=O)NC(C)c2ccccc2)c(O)c2ccccc21 (stereo not drawn),1.27,1.71
CC(C(=O)Nc1ccc(Cl)cc1C(=O)c1ccccc1)N1CCCCC1 (stereo not drawn),0.907,-1.44

# More entries
SMILES,CBX7 AlphaScr,CBX7 AlphaScr z-score
OC(CNC1CN2CCC1CC2)COc1cccc2ccccc12 (stereo not drawn),1.03,0.927
Cc1ccc(-n2c(/C=C/c3ccc(OC(F)F)cc3)nc3ccccc3c2=O)cc1,0.949,-0.789
O=C(O)C1(c2ccccc2)CCN(Cc2ccccc2)CC1,1.19,1.66
Cc1ccc(CN2C(=O)CN=C(c3ccccc3Cl)c3cc(Cl)ccc32)cc1,1.03,0.937
CCOc1cc2c(cc1OCC)-n1cccc1C(c1ccc(C(F)(F)F)cc1)NC2 (stereo not drawn),0.881,-4.25
CC(C)Oc1ccc(C2SCC(=O)Nc3c2c(-c2ccccc2)nn3-c2ccccc2)cc1 (stereo not drawn),0.697,-3.46
O=c1cccc2n1CC1CC2CN(CC(O)CSc2ccccc2)C1 (stereo not drawn),1.06,1.56
Cc1nn(-c2ccccc2)c2c1C(c1ccc(OCc3ccccc3)cc1)SCC(=O)N2 (stereo not drawn),0.791,-0.586
CCC(C)NC(=O)CN1C(=O)CN=C(c2ccccc2)c2ccccc21 (stereo not drawn),0.976,-0.439
Cc1cccc(NC(=O)CN2CC(c3ccccc3)CC2=O)c1 (stereo not drawn),0.963,-0.862
Cc1nc2ccc(Cl)cc2c(=O)n1-c1ccc(Br)cc1,0.958,-0.832
O=c1c2ccccc2nc(-c2ccccc2F)n1-c1ccccc1Cl,1.13,0.306
COc1ccccc1CN1CCN(Cc2ccc(Br)cc2)CC1,0.738,-3.14
O=c1c2ccccc2nc(/C=C\c2ccccc2F)n1-c1ccc(Cl)cc1,1.03,1.3
CCC(=O)OC1CCC2C3CCC4=CC(=O)CCC4(C)C3CCC12C (stereo not drawn),1.07,2.03
COc1cc2c3c(c1O)-c1c(cccc1OC)CC3N(C)CC2 (stereo not drawn),1.09,0.242
COc1ccc(Cl)cc1NC(=O)CN1C(=O)CN=C(c2ccccc2)c2ccccc21,0.842,-2.27
Fc1ccccc1C1NCc2ccccc2-n2cccc21 (stereo not drawn),0.984,-0.825
COc1ccc(/C=C/c2nc3ccccc3c(=O)n2-c2ccc(OC)cc2)cc1,1.03,0.446
CC(C)CCNC(=O)CN1C(=O)CN=C(c2ccccc2)c2ccccc21,0.936,-1.31
COc1cc(NC(=O)CN2C(=O)CN=C(c3ccccc3)c3cc(Cl)ccc32)cc(OC)c1,0.751,-6.48
CCOc1cc2c(cc1OCC)-n1cccc1C(c1ccc(F)c(OC)c1)NC2 (stereo not drawn),0.856,-3.15
COc1cccc(C2=NOC(C(=O)N3CCC4(CC3)OCCO4)C2)c1 (stereo not drawn),1.09,1.2
CN1CC2(c3ccccc3)CN(C)CC(c3ccccc3)(C1)C2=O,1.01,0.3
COCCCn1c(-c2ccc(OC)cc2)cc(C(=O)NC2CCCCCCC2)c1C,0.887,-3.73
O=C1CN=C(c2ccccc2)c2oc3ccccc3c2N1,0.98,-0.759
COc1ccc2[nH]c(C)c(CCNCc3ccc(C#N)cc3)c2c1,0.257*,-0.74*
CCOc1cc2c(cc1OCC)-n1cccc1C(c1ccc(C)cc1C)NC2 (stereo not drawn),0.677,-11.5
COc1ccc(/C=C/c2nc3ccccc3c(=O)n2-c2ccc(Cl)cc2C)cc1,1.19,5.14
COc1ccc(OC)c(NC(=O)CN2C(=O)CN=C(c3ccccc3)c3cc(Cl)ccc32)c1,0.85,-7.23
COc1ccc(/C=C/c2nc3ccccc3c(=O)n2-c2ccc(F)c(Cl)c2)cc1,1.09,1.39
O=C(CN1CC(c2ccccc2)CC1=O)Nc1ccc(F)cc1 (stereo not drawn),1.01,0.14
CC(=O)CC(c1ccccc1)c1c(OC(C)=O)c2ccccc2oc1=O (stereo not drawn),1.18,3.42
Cc1ccc(-n2nnnc2C2(NCCc3c(C)[nH]c4c(Cl)c(Cl)ccc34)CCCCC2)cc1,0.727,-4.2
OC(c1ccccc1)(c1ccccc1)c1cnc[nH]1,0.941,-1.17
O=C1CN=C(c2ccccc2)c2cc(Cl)ccc2N1Cc1ccccc1F,0.967,-0.59
Cc1ccc(NC(=O)CN2C(=O)C(C)N=C(c3ccccc3)c3cc(Cl)ccc32)cc1C (stereo not drawn),0.757,-6.77
OC(c1ccccc1)(c1ccccc1)C1CCCN1 (stereo not drawn),1.09,1.2
O=c1c2ccccc2nc(/C=C\c2cccc(C(F)(F)F)c2)n1-c1ccc(F)cc1,1.02,0.438
C#CCN1CCC2=C(C1)c1c(OC)cc(C(C)C)cc1OC2(C)C,0.897,-2.03

# Record cards, from the list above:
# Results for OC(CNC1CN2CCC1CC2)COc1cccc2ccccc12 (stereo not drawn) → CBX7 AlphaScr = 1.03; CBX7 AlphaScr z-score = 0.927
# Results for CC1N=C(c2ccccc2)c2ccccc2N(CC(=O)NCc2ccccc2)C1=O (stereo not drawn) → CBX7 AlphaScr = 1.01; CBX7 AlphaScr z-score = 0.341

# Other compounds
SMILES,CBX7 AlphaScr,CBX7 AlphaScr z-score
CCOc1ccc(C(=O)C(CN2CCCC2)c2ccccc2)cc1 (stereo not drawn),1.33,3.68
OC12CCCCC1C(c1cccc(Cl)c1)NCC2 (stereo not drawn),1.1,2.25
Cc1nc2ccccc2c(=O)n1-c1ccc(Br)cc1,0.897,-1.22
COCc1cc(C2SCC(=O)Nc3c2c(C)nn3-c2ccccc2)ccc1OC (stereo not drawn),0.986,-0.0381
CNc1ccc(Br)cc1C(=O)c1ccc(Cl)cc1,0.79,-5.19
C(#CCN1CCOCC1)COC/C=C/c1ccccc1,0.93,-1.39
CC1N=C(c2ccccc2)c2cc(Cl)ccc2N(CC(=O)Nc2ccccc2C(F)(F)F)C1=O (stereo not drawn),0.892,-1.55
Cc1ccc(OCC(=O)Nc2ccc(Cl)cc2C(=O)c2ccccc2)cc1C,0.975,-0.7
COc1cccc(-n2c(/C=C/c3ccc(N(C)C)cc3)nc3ccccc3c2=O)c1,0.933,-1.04
O=C(Nc1ccc2ccccc2c1)N1C[C@H]2C[C@@H](C1)c1cccc(=O)n1C2,0.865,-1.85
CCOC(=O)C1(c2ccccc2)CCN(CCC(=O)Nc2ccc(C(=O)OC)cc2)CC1,0.964,-0.169
CC1N=C(c2ccccc2)c2ccccc2N(CC(=O)Nc2ccc(F)cc2Cl)C1=O (stereo not drawn),1.03,1.34
Cc1ccc(NC(=O)CN2C(=O)CN=C(c3ccccc3)c3cc(Cl)ccc32)c(C)c1,1.08,0.57
CCOC(=O)C1(c2ccccc2)CCN(CCOc2ccccc2)CC1,0.641,-0.73
Cc1nn(-c2ccccc2)c2c1C(c1ccc(OC(C)C)cc1)SCC(=O)N2 (stereo not drawn),0.766,-0.655
COc1cccc(/C=C/c2nc3ccccc3c(=O)n2-c2ccc(Br)cc2)c1OC,1.06,3.17
COc1ccc(CNCCc2c(C)[nH]c3ccc(OC)cc23)c(F)c1,0.616,-6.97
CCN(CC)C(=O)c1ccc(NC(=O)Cn2nc(-c3ccc(C)cc3)c3ccccc3c2=O)cc1,0.874,-1.44
C#CCN1CCC2=C(C1)c1c(O)cc(C(C)C(C)CCCCC)cc1OC2(C)C (stereo not drawn),0.649,-6.96
Cc1ccc(-n2c(/C=C/c3cccc(Br)c3)nc3ccccc3c2=O)cc1C,0.994,-0.208
COc1cc2c(cc1OC)C(C(=O)Nc1cccc(Cl)c1)C1CCCCN1C2=O (stereo not drawn),1.17,1.89
CCOc1cc2c(cc1OCC)-n1cccc1C(c1ccc(OC(F)(F)F)cc1)NC2 (stereo not drawn),0.83,-3.71
O=C(CN1CC(c2ccccc2)CC1=O)NCc1ccc(F)cc1 (stereo not drawn),1.03,1.15
O=C(c1cc(-c2ccncc2)nc2ccccc12)N1CCC2(CC1)OCCO2,1.06,1.5
O=C(CN1C(=O)CN=C(c2ccccc2)c2ccccc21)Nc1cccc(C(F)(F)F)c1,0.841,-2.96
CCOC(=O)C1(c2ccccc2)CCN(CCC(=O)Nc2cccc(Br)c2)CC1,0.825,-0.821
CCCCCOc1ccc(C2SCC(=O)Nc3c2c(C)nn3-c2ccccc2)cc1 (stereo not drawn),0.859,-5.01
O=C(CN1CC(c2ccccc2)CC1=O)Nc1cccc(F)c1 (stereo not drawn),0.929,-1.65
CCOC(=O)C1(c2ccccc2)CCN(CC(=O)Nc2cccc(Cl)c2)CC1,0.354*,-7.29*
CC(=O)Oc1ccc(OC(C)=O)c2c1C1(Cl)C(Cl)=C(Cl)C2(Cl)C1(Cl)Cl,0.977,-0.25
O=c1c2ccccc2nc(/C=C/c2cccc(F)c2)n1-c1cccc(Cl)c1,0.992,-0.379
CCCCOc1ccc(C2SCC(=O)Nc3c2c(=O)[nH]n3C(C)CC)cc1 (stereo not drawn),1.1,2.35

# High-throughput results deposited in PubChem BioAssay by several laboratories.
